Screening data deposited in PubChem by Fisher Drug Discovery Resource Center.
NPYLR7 agonist – mosquito NPYLR7 agonism; HEK293T NPYLR7/Galpha15, GCaMP6s calcium fluorescence; activation, % at 10 µM; hit rate 0.15% among 270,000; in the data active = activation above about 40%;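 also: 0% = vehicle and 100% = reference agonist at the receptor; some compounds past the cut are filed as inactive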
NPYLR7 agonist max-min – also measured in NPYLR7 agonist; calls as there; activation, %; measured here: Max-Min RFU normalised activation; some inactives read as strong as hits;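 span of the calcium signal over five minutes; 0% = vehicle and 100% = native peptide agonist; compound fluorescence can raise it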
* marks the source's active call; other numbers are inactive results.

item	SMILES	NPYLR7 agonist	NPYLR7 agonist max-min
1	CC(OCC(F)(F)F)C(=O)Nc1nc2cc(Cl)ccc2s1 (stereo not given)	2	2
2	CCOc1ccccc1C=Nc1ccc(C)cc1O	-11	-16
3	CCOCCCn1c(SCc2cc(Cl)ccc2F)nc2cc(C(=O)OCC)ccc21	19	28
4	CCNC(=O)CSc1nnc(N2CCC(C)CC2)n1Cc1ccco1	6	6
5	O=C1NCCCCC1Sc1nnc2c(Cl)cc(C(F)(F)F)cn12 (stereo not given)	8	3
6	CC(C)(C)c1cc(NC(=O)c2ccc(OC(F)(F)F)cc2)n(-c2ccc(C#N)cc2)n1	0	6
7	COc1cccc(C(=O)N2C(C(=O)NCc3ccco3)COC23CCN(C(=O)c2ccc(Cl)cc2)CC3)c1 (stereo not given)	21	33
8	O=C(NCCc1ccccc1Cl)N1CCN(Cc2ccon2)CC1	4	1
9	CC(C)c1ccc(S(=O)(=O)Nc2cc(-c3ccco3)nn2C2CCS(=O)(=O)C2)cc1 (stereo not given)	-1	-3
10	COc1ccc(N2CCN(C(c3ccccc3)C3Sc4nc(C)nn4C3=O)CC2)cc1 (stereo not given)	-2	-2
11	O=C(NCC1Cc2cc(Oc3ccccc3)ccc2O1)c1ccc2c(c1)OCO2 (stereo not given)	22	16
12	O=C(Nc1nc2ccccc2s1)C1CCCCC1	-16	-19
13	O=C(CSc1nc2[nH]ncc2c(=O)[nH]1)NCc1ccc2c(c1)OCO2	1	1
14	NC(=O)c1c(F)cccc1-c1cccnc1	8	4
15	COc1ccc(-c2ccc(N3CCCC(C(=O)Nc4ccccn4)C3)nn2)cc1 (stereo not given)	-8	-15
16	CCN(CC)c1nc(-c2ccccc2)c2cc(Cl)ccc2n1	-7	-10
17	Cc1cccc(C(=O)N2CCN(C(c3ccccc3)c3ccc(Br)cc3)CC2)c1 (stereo not given)	23	27
18	CC(NC(=O)c1ccc(=O)[nH]n1)c1cccc2ccccc12 (stereo not given)	-2	-3
19	Cc1cc(C)n(-c2ccc(C(=O)Nc3cccc(Oc4ccccc4)c3)cc2)n1	-1	-7
20	O=C(Nc1ccc(-n2nc(OCc3ccc(F)cc3)nc2-c2ccccc2F)cc1)c1ccco1	19	30
21	CCCC(=O)C1=C(c2cccs2)N(C(=O)CCC)n2c(nnc2-c2ccccc2)S1	0	-1
22	Cc1ccc(NC(=O)Cn2ccn3nc(-c4ccc(C)cc4)cc3c2=O)cc1	6	4
23	CCN1C(=O)NC(c2ccc(Cl)cc2Cl)C2=C1CN(CC(=O)N(CC(C)C)CC1CCCO1)C2=O (stereo not given)	0	9
24	O=C(NCCS(=O)(=O)N1CCN(c2ccccc2)CC1)C1c2ccccc2Oc2ccccc21	7	5
25	CC(C)N(CC(=O)N(CCc1c[nH]c2ccccc12)Cc1ccc(Cl)c(Cl)c1)Cc1cc(F)ccc1F	11	11

Record cards (already shown). Screens in order: NPYLR7 agonist	NPYLR7 agonist max-min
`NC(=O)c1c(F)cccc1-c1cccnc1` is listed with 8	4
`CCCC(=O)C1=C(c2cccs2)N(C(=O)CCC)n2c(nnc2-c2ccccc2)S1` is listed with 0	-1

The list goes on:
item	SMILES	NPYLR7 agonist	NPYLR7 agonist max-min
26	O=C(NCCCN1CCCC1=O)C(C1CCCC1)N1CCN(C(=O)c2ccc(Cl)c(Cl)c2)CC1 (stereo not given)	-4	-1
27	FC(F)(F)c1nc(NCc2ccccc2)c2cnn(Cc3ccccc3)c2n1	9	9
28	COCCN(CCOC)c1snc(Cl)c1C#N	0	-1
29	COc1ccc(CSc2nnnn2C2CC2)cc1Br	0	3
30	O=C(C1CCCN(C2CCN(c3nc4ccccc4s3)CC2)C1)N1CCCC1 (stereo not given)	1	17
31	CC(C)(C)C1CCc2c(C(=O)N/N=C\c3ccoc3)csc2C1 (stereo not given)	-6	-9
32	CCNC(=O)C1Cc2ccccc2N1C(=O)c1cc(=O)c2ccccc2o1 (stereo not given)	-21	-30
33	Cc1cc(NC(=O)C(c2ccccc2)N(C)Cc2ccco2)no1 (stereo not given)	-3	-1
34	CCOc1ccc(S(=O)(=O)N2CCCCC2)cc1NCC(=O)NC(C)(C)C	-7	-8
35	CC(C)Cc1nc(N2CCN(C(=O)Nc3ccc(Cl)cc3)CC2)c2c(-c3cccc(Oc4ccccc4)c3)noc2n1	16	14
36	CCOC(=O)C1CCN(C(c2ccc(OC)cc2)C2Sc3nc(CC)nn3C2=O)CC1 (stereo not given)	-1	6
37	O=C(CN1CN(c2ccccc2)C2(CCN(C(=O)c3ccccc3Br)CC2)C1=O)NCC1CCCCC1	34	33
38	Cc1cccc(C)c1NS(=O)(=O)c1c(C)nn(C)c1C	8	5
39	Cc1cnc(CNC(=O)c2ccc(OC3CCN(CCc4ccccc4)CC3)cc2)cn1	-3	-4
40	O=C1NCC2(CCCN(Cc3cccc(-c4ccccn4)c3)CC2)O1 (stereo not given)	4	-8
41	Cc1ccc(C2c3c(oc4cc(C)c(Cl)cc4c3=O)C(=O)N2c2nccs2)cc1 (stereo not given)	1	1
42	CCCC1=NN(C(=O)c2ccc(-c3ccccc3)cc2)C(O)(C(F)(F)F)C1 (stereo not given)	8	6
43	COC(=O)c1cc(OC)c(OC)cc1NCc1ccc(F)cc1Br	-4	-7
44	Cc1c(C(=O)N2CCOCC2)sc2nc(-c3ccccc3)cn12	7	5
45	Cc1ccc(-n2ncc3c2CC(C)(C)CC3NC(=O)c2cn(C)c3ccccc3c2=O)cc1 (stereo not given)	25	23
46	CCCS(=O)(=O)Nc1ccc2c(c1)C(=O)N(CC)c1ccccc1O2	9	6
47	COc1ccc2oc(=O)n(C3CCN(C(=O)c4cnc5ccccc5n4)CC3)c2c1	0	-1
48	Cc1cc(C)cc(OCCC(=O)Nc2cc(C)ccn2)c1	-2	-2
49	COCCCN(Cc1csc(COc2cc(C)cc(C)c2C)n1)C(=O)c1cccc(Br)c1	18	17
50	O=c1oc2cc(O)ccc2cc1-c1nnc(Nc2ccc(Oc3ccc4ccccc4c3Cl)c(Cl)c2)s1	-7	-2

A few values from the list.
Result for cpd 26 under NPYLR7 agonist max-min: -1
Result for cpd 39 under NPYLR7 agonist: -3
Result for cpd 29 under NPYLR7 agonist max-min: 3
Result for cpd 38 under NPYLR7 agonist max-min: 5
Result for cpd 48 under NPYLR7 agonist: -2
Result for cpd 34 under NPYLR7 agonist: -7
Result for cpd 30 under NPYLR7 agonist max-min: 17

Additional compounds:
item	SMILES	NPYLR7 agonist	NPYLR7 agonist max-min
51	Cc1nc(CN(C)C(=O)CCn2nnc3ccccc32)no1	-3	-6
52	C=CCN1CCC(C(=O)NC(c2ccc(Cl)cc2)c2nc(OC)cc(OC)n2)CC1 (stereo not given)	5	0
53	CCOC(=O)C1(CCCc2ccccc2)CCN(C(=O)c2ccc3c(c2)OCO3)CC1	2	1
54	Cc1nc2nc(N)nn2c(C)c1CCC(=O)N(C)Cc1ccc(C(C)(C)C)cc1	10	-1
55	CCCCCn1c(SCC(=O)OCC)nc2c1c(=O)[nH]c(=O)n2C	-1	41
56	Cc1ccc(NCN2C(=O)C3C4C=CC(C4)C3C2=O)cc1Cl (stereo not given)	0	-1
57	Cc1ccc2oc(CN3CCN(c4ccc(C(N)=O)cn4)CC3)c(C)c2c1	2	2
58	CC1Oc2ccc(C#N)cc2N(Cc2ccccc2OC(F)(F)F)C1=O (stereo not given)	4	2
59	COCCNC(=O)c1cc(-c2ccc(Cl)cc2)n(-c2ccccc2)c1C	18	32
60	CC(C)COc1nc(-c2cccs2)n(-c2ccc(N)cc2)n1	-2	6
61	O=C(N[C@@H]1CCCCC1NC(=O)C1CCN(C(=O)C2CCC2)CC1)c1ccc(F)cc1 (stereo not given in full)	3	18
62	Cc1cc(C)n(C2CCN(Cc3c(C(=O)N4CCCC4)nc4ccccn34)C2)n1 (stereo not given)	1	11
63	COCC(C)(C)CNC(=O)c1ccc(F)cc1Cl	-3	-4
64	CSc1ccccc1C(=O)NCC1Cc2cc(-c3ccccc3C(C)=O)ccc2O1 (stereo not given)	15	4
65	CC1(C(=O)Nc2cccc(C#N)c2)CCN1C(=O)Cc1ccc(-c2ccccc2)cc1 (stereo not given)	-3	25
66	CC1CCCC(NC(=O)CSCc2ccc(-n3cccn3)cc2)C1C (stereo not given)	0	-2
67	CO[C@H]1C(=O)N(C)C2(CCN(C(=O)Cc3cccs3)CC2)[C@@H]1C(=O)N(C)c1ccccc1	20	24
68	Cn1c(=O)c2c(nc3n2CC(c2ccccc2)=NN3Cc2ccc(Br)cc2)n(C)c1=O	6	9
69	O=C(Nc1ccc(C(=O)N2[C@@H]3CC[C@H]2CC(O)C3)cc1)C1CCC1 (stereo not given in full)	22	12
70	Nc1c(C(=O)Nc2nccs2)sc2nc3c(c(-c4cccs4)c12)CCC3	22	12
71	C(=C1CCCC2C1=Nc1ncnn1C2c1ccccc1)c1ccccc1 (stereo not given)	5	1
72	Cc1ccsc1CNC(=O)Nc1ccccc1-c1nncn1C(C)C	4	1
73	CN1CCNC(=O)C12CCN(C(=O)CN1CCC(c3ccccc3)C1)CC2 (stereo not given)	0	-2
74	Cc1nn(CCC(=O)Nc2ccc(F)cc2)c(C)c1C	-8	-8
75	CCOC(=O)C1(CCOc2ccccc2)CCN(Cc2nccn2CC)CC1	22	7

Exported screen by screen: 2 of the compounds above.
68) Cn1c(=O)c2c(nc3n2CC(c2ccccc2)=NN3Cc2ccc(Br)cc2)n(C)c1=O
69) O=C(Nc1ccc(C(=O)N2[C@@H]3CC[C@H]2CC(O)C3)cc1)C1CCC1 (stereo not given in full)

Assay by compound	68	69
NPYLR7 agonist	6	22
NPYLR7 agonist max-min	9	12

The list goes on.
item	SMILES	NPYLR7 agonist	NPYLR7 agonist max-min
76	O=c1[nH]c2ccccc2n2c(=S)[nH]nc12	0	-1
77	CC(c1ccccc1)N1CC(C(=O)NCCCn2cncn2)CC1=O (stereo not given)	-4	20
78	Cc1nnc(NC(=O)N2CCCN(c3ccccc3C)CC2)s1	2	43
79	COCCc1noc(-c2cc(C3CC3)nc3ccc(Cl)cc23)n1	0	22
80	CCc1nnc(CNc2ccc3c(c2)OC(F)(F)O3)o1	-24	-24
81	CC(=O)c1c(F)cccc1NC1CCN(Cc2ccccn2)CC1C (stereo not given)	0	-15
82	COc1cccc(CN(Cc2ccc(C(O)(c3cccc(F)c3)c3cccc(F)c3)o2)CC2CCCO2)c1 (stereo not given)	-6	0
83	O=c1cnnc(SCc2ccccc2)[nH]1	1	-1
84	CC(C)CN1CCC(NC(=O)C(C)SCc2nc3scc(-c4ccccc4)c3c(=O)[nH]2)CC1 (stereo not given)	-1	4
85	CC(C)C(=O)N(C)c1nnc(C23CC4CC(CC(C4)C2)C3)s1	-2	0
86	COc1ccc(C=NNC(=O)c2n[nH]c3c2CCCC3)cc1	1	-2
87	CCC(C(=O)N(Cc1c(C)nn(-c2cccc(F)c2)c1N1CCN(CC)CC1)C(C)C)c1ccccc1 (stereo not given)	-4	5
88	O=Cc1ccc(N2CCC(c3ccc(Cl)cc3)=N2)cc1	7	0
89	CCOc1ccc(Br)cc1S(=O)(=O)Nc1ccc(C)cc1Cl	-3	-2
90	Cc1nc2c(c(C)nn2C)c(C)c1CCC(=O)NC(C)C1CC2CCC1C2 (stereo not given)	4	2
91	CCOc1nc(-c2ccc3c(c2)OCO3)n(-c2ccc(NC(=O)C(C)(C)CCl)cc2)n1	-14	-14
92	Cc1noc(C)c1C1CCCN1C(=O)Cc1cnc2c(C)cccn12 (stereo not given)	5	3
93	N#Cc1c(N)nc2c(c1-c1ccc3c(c1)OCO3)CCCC2	2	-1
94	COCc1cccc(C(=O)NC(C)c2ccc(F)c(F)c2)c1 (stereo not given)	-1	-1
95	O=S(=O)(Nc1nc2ccccc2nc1NCc1ccccn1)c1ccc(F)cc1	2	-2
96	c1cncc(C2CN(c3cc(N4CCCCC4)ncn3)C2)c1	27	13
97	CCc1nn2c(ncc3c(=O)n(NC(=O)c4cccnc4)ccc32)c1-c1ccc(F)cc1	4	0
98	CN(Cc1cn(C)nc1-c1ccc2c(c1)OCCO2)Cc1cccc2ncccc12	0	-3
99	CC1=C[C@@H](CNC(=O)NC(C)C)[C@H](C(C)C)C[C@H]1Cc1nnc(-c2ccccc2F)o1	-11	-16
100	Cc1ccc(-c2c(C)oc(C)c2C(=O)Nc2ccccc2)cc1	1	-3
101	Cc1oc(-c2cccc(C(F)(F)F)c2)nc1CN1CCN(c2cnccn2)CC1	3	-2
102	CCOC(=O)C1CCCN(C(c2ccc(Cl)cc2)C2Sc3nc(CC)nn3C2=O)C1 (stereo not given)	1	18
103	Cc1cccc(-c2nc(C)c(C(C)C)c(N3CCN(C(=O)c4cc(C(F)(F)F)cc(C(F)(F)F)c4)CC3)n2)c1	6	17
104	Cc1ccc(C=C(C#N)C(=O)NC(C)C)o1	3	3
105	COc1cc(OC)cc(N2CCN(C(=O)c3ccc(Cl)c(Cl)c3)C(C)C2=O)c1 (stereo not given)	6	32
106	Cc1ccoc1CN1CCN(c2ncccn2)CC1	-5	-10
107	CCn1nnc2c(=O)n(CC(=O)NC(C)(C)C)cnc21	1	21
108	CC(C(=O)Nc1ccc(C#N)cc1)N1CCN(C(=O)C2CC2)CC1 (stereo not given)	-4	-6
109	COc1ccccc1-c1nc2ccc(C)cn2c1NC(=O)c1ccccc1C	-6	-6
110	O=C(NCC(c1ccccc1)N1CCCC1)c1ccc(OCC2CCCO2)cc1 (stereo not given)	8	2
111	O=C(c1ccc(-c2ccc3c(c2)OCO3)s1)N1CCc2ccccc2C1	30	41

Some of the compounds tested (hit frequency here may not be typical).
